# AID504770 – growth inhibitors of E. coli YBA685 in a screen for V. cholerae RctB (chromosome II replication) inhibitors; E. coli YBA685 rctB-dependent plasmid, OD600 growth, 3 h; stronger effect = lower value; z-score (test concentration not listed); 0.27% of 130,000 active; AID 504770;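 active means z-score under -2 on both plates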;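 further: wells of about 30 µL received 100 nL stock; score is relative to mean and SD of the test wells; the first replicate is given; strong numbers were not always called active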
# CapD inh – blocks the Bacillus anthracis CapD enzyme; purified CapD enzyme, fluorescence intensity read-out; stronger effect = lower value; some hits fall short of the stated cut; 0.23% of 140,000 active; AID 492967; z-score (no concentration beside the values);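 active means z-score under -4 in either of two replicates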;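 further: stock transfer was 100 nL into about 40 µL; score is relative to mean and spread of the plate; one replicate is shown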
# Starred values were filed as active, the others as inactive; i = inactive; . = not tested or not shown; & = joins results of further samples.
SMILES,AID504770,CapD inh
Cc1ccc(C)c(N2CC(O)(c3cccc([N+](=O)[O-])c3)[N+]3=C2SCCC3)c1 (centres undefined),.,0.05
CC(=O)N1CCC(N(C(=O)COc2ccccc2C(=O)NCCN2CCOCC2)C2CC2)CC1,.,-0.365
Cc1ccc(N2C(=O)C(C(C)C)NC2=S)cc1 (centres undefined),0.75,.
COc1ccccc1N(C(=O)C1CSC(=O)C1)C(C(=O)NC1CCCCC1)c1ccncc1 (centres undefined),-0.8,.
CCN1CCCC1CNC(=O)OCCc1cccc(C)c1 (centres undefined),.,-1.34
Cn1nc(C(=O)N2CCCCC2)c2c1-c1ccccc1SC2,-1.1,-0.13
COC(=O)c1ccc(-c2ccc(/C=C3/C(=O)N(c4ccc(Cl)c(C(=O)O)c4)N=C3C)o2)cc1,.,-0.96
O=S(=O)(NC1CCCC1)c1cccs1,-0.85,.
CCCc1[nH]n(-c2ccc(F)cc2)c(=O)c1C=NCCCN1CCOCC1,.,-1.06
CN(Cc1c(F)cccc1Cl)C(=O)Cc1ccc2c(c1)OCCO2,-0.25,.
COC(=O)CSC1=C(C#N)C(c2cc(Br)c(O)c(OC)c2)CC(=O)N1 (centres undefined),.,0.025
O=C(CCc1nc2ccccc2o1)OCc1cc(=O)n2c3c(sc2n1)CCCC3,-0.25,.
O=C(O)CSc1nc2ccccc2n2cnnc12,-0.4,0.495
Cc1nc2ccccn2c1C(=O)CSc1ccc(Br)cc1,.,-1.41
CN(CCOC(=O)N1CCC(O)(c2ccc(Cl)cc2)CC1)c1ccccc1,.,-0.585
NS(=O)(=O)c1ccc(N2CCCC2=O)cc1,-0.5,0.075
CC(C)Cn1c(SCn2nnc3ccccc3c2=O)nc2ccccc2c1=O,-2.1,.
O=C1C(c2ccc(Br)cc2)=C(O)c2ccccc21,.,-0.05
S=c1[nH]c2ccccc2n1CCc1ccccc1,1.3,.
COc1ccc(S(=O)(=O)NC(CC(=O)NC2CCCC2)c2ccco2)cc1 (centres undefined),-0.65,0.285
O=C1C=CC(=O)N1c1ccc2c(c1)OCCO2,-0.5,0.68
CCN(CC)C(=S)Nc1ccc2nsnc2c1,-0.7,0.085
CCn1cnc2cc(NC(=O)C3CCCCC3)ccc21,-0.4,.
CC(C)Oc1snc(Cl)c1C(N)=O,-0.5,0.21
N#Cc1ccc(COc2cccc3cccnc23)cc1,-0.35,9.55
CCOC(=O)C1CCCN(C(=O)c2c[nH]n3c(=O)c(Cc4ccc(Cl)cc4)c(C)nc23)C1 (centres undefined),0.4,0.185
COc1ccc(C2N(c3ccc(OC)cc3)C(=O)C23CCCC3)cc1 (centres undefined),-0.2,0.085
CCCC1c2ccc(C)n2CCN1C(=O)Nc1cc(Cl)ccc1C(=O)OC (centres undefined),-0.9,15.2
CCOC(=O)c1c(NC(=O)CC2SC(=NC)N(C)C2=O)sc2c1CCCC2 (centres undefined),.,-0.715
Cc1ccc(C2Nc3cccc4cccc(c34)C(=O)CS2)cc1 (centres undefined),.,-0.55

# Three entries from above, set out differently.
SMILES	AID504770	CapD inh
CCOC(=O)c1c(NC(=O)CC2SC(=NC)N(C)C2=O)sc2c1CCCC2 (centres undefined)	.	-0.715
CCn1cnc2cc(NC(=O)C3CCCCC3)ccc21	-0.4	.
COc1ccc(C2N(c3ccc(OC)cc3)C(=O)C23CCCC3)cc1 (centres undefined)	-0.2	0.085

# 4 entries out of the list, ordered by SMILES length, smallest number first:
SMILES,AID504770,CapD inh
CC(C)Oc1snc(Cl)c1C(N)=O,-0.5,0.21
COc1ccc(C2N(c3ccc(OC)cc3)C(=O)C23CCCC3)cc1 (centres undefined),-0.2,0.085
CCCC1c2ccc(C)n2CCN1C(=O)Nc1cc(Cl)ccc1C(=O)OC (centres undefined),-0.9,15.2
CCOC(=O)c1c(NC(=O)CC2SC(=NC)N(C)C2=O)sc2c1CCCC2 (centres undefined),.,-0.715

# Later entries
SMILES,AID504770,CapD inh
Cc1ccc(CSc2n[nH]c(N)n2)cc1,-0.45&-0.9,-0.08&0.045
COc1cccc(C2c3c(oc4ccccc4c3=O)C(=O)N2c2ccccn2)c1 (centres undefined),0.35,-0.135
COCCCn1c(C)cc(C(=O)COc2cccc(C#N)c2)c1C,-0.35,.
Cc1ccc2c(c1)c1cccc3c1n2CCN3CCC#N,-0.4,75
CCN(CC)c1ccc(C=C2C(=O)N(C)C(=S)N(C)C2=O)cc1,-1.15,-1.66
COc1cc(OC)c(C(=O)OC(C)C(=O)N2CCC(C)CC2)cc1OC (centres undefined),0.15,.
O=C1Nc2ccc(Br)cc2C1=Nc1ccc(Cl)cc1,.,0.5
COc1cc2c(cc1OC)C(=O)NCC2,0,2.18
CCNS(=O)(=O)c1ccc(NC(=O)Cc2ccc(OC)cc2)cc1,-1.15,0.1
Cn1cc(O)nc1NC(=O)c1cccc(Oc2ccccc2)c1,-0.3,-0.925
CC(C)(C)c1ccc(C(=O)NCCn2c(N)c(C#N)c3nc4ccccc4nc32)cc1,-0.8,.
CCC(C)(O)c1cn(Cc2ccccc2)nn1 (centres undefined),1.2,-1.03
S=C(NCC1CCCO1)N1CCc2ccccc21 (centres undefined),0.7,.
Cn1c(Sc2nc3ccc(Cl)cc3s2)nnc1-c1ccc(Cl)cc1Cl,.,-0.355
CCOC(=O)c1c(NC(=O)CC)sc(C)c1C,-0.25,-0.63
O=C1NC(=O)C(=Cc2ccc([N+](=O)[O-])s2)C(=O)N1,.,-0.11
Cc1ccc(C)c(N2CCN(CCCNC(=O)c3oc4c(c3C)-c3[nH]ncc3CC4)CC2)c1,-0.25,0.565
CC(C)(C)OC(=O)n1cc(C(=O)c2ccccc2O)cn1,-0.65,.
FCCCOc1ccc(/C=N/OCc2c(Cl)cccc2Cl)cc1,.,0.2
COC(=O)c1ccc(NC(=S)NC2CC2)cc1,-0.6,-0.075
COC(=O)c1sc(N)c(C(=O)OC)c1COC(=O)CNS(=O)(=O)c1cccc(C#N)c1,0.6,.
COc1cccc(C(=O)OCC(=O)NCc2ccccc2)c1,-0.65,.
COc1ccc(C2CC(c3ccccc3)=NN2C(=O)CN(C)C2CCS(=O)(=O)C2)cc1 (centres undefined),0.35,.
CCc1cccc(NC(=O)Cn2ncc3c(=O)oc4ccccc4c32)c1,-0.05,-0.02
Cc1cc2nc(CSc3nc4ccccc4[nH]3)cc(=O)n2o1,-1.95,-0.505
NC(=O)NCCc1nc2ccccc2[nH]1,-0.15,0.085
CC(C)n1cc(-c2ccncn2)cn1,.,-0.075
COc1cc(C(=O)O)cc(OC)c1OCC(N)=O,-0.4,.
COc1ccc(-n2c(=S)[nH]c3cc(C(=O)NCCCN4CCCC4=O)ccc3c2=O)c(OC)c1,.,0.225
O=C(Nc1ccccc1)c1ccccc1OCC(=O)N1CCCC1,-2.95*,.
c1cc(-c2cn[nH]c2-c2ccncc2)ccn1,.,-0.13
CCOc1ccc(-c2nnc(SC(F)F)n2CCC(=O)O)cc1,-1.85,.
CCC(CC)C(=O)Nc1nc2ccc(OC)cc2s1,0.95,0.19
CC(C(=O)O)c1c(C(=O)O)[nH]c2ccccc12 (centres undefined),-0.25,0.91
COc1cc(C2NC(=O)c3c(sc4c3CCCC4)N2)cc(OC)c1OC (centres undefined),.,-0.185
O=C(NCc1ccco1)c1cc2c(s1)CCCC2,-0.1,-0.705
CC(=O)Nc1ccccc1OCC(=O)c1cc(C)n(CC2CCCO2)c1C (centres undefined),0.9,.
COc1ccc(S(=O)(=O)N(CC(N)=O)c2ccc(C)cc2)cc1,-0.1,0.08
CCOc1cccc2cc(C#N)c(=O)oc12,0.45,i
CC(C)N1CCc2c(sc(NC(=O)CCc3ccccc3)c2C#N)C1,-1.3,3.12

# Overlap with the part before: 7 compounds, followed by the next part.
SMILES,AID504770,CapD inh
CC(C(=O)O)c1c(C(=O)O)[nH]c2ccccc12 (centres undefined),-0.25,0.91
COc1cc(C2NC(=O)c3c(sc4c3CCCC4)N2)cc(OC)c1OC (centres undefined),.,-0.185
O=C(NCc1ccco1)c1cc2c(s1)CCCC2,-0.1,-0.705
CC(=O)Nc1ccccc1OCC(=O)c1cc(C)n(CC2CCCO2)c1C (centres undefined),0.9,.
COc1ccc(S(=O)(=O)N(CC(N)=O)c2ccc(C)cc2)cc1,-0.1,0.08
CCOc1cccc2cc(C#N)c(=O)oc12,0.45,i
CC(C)N1CCc2c(sc(NC(=O)CCc3ccccc3)c2C#N)C1,-1.3,3.12
CCCNC(=O)CSc1c(-c2ccccc2)c2cc(Cl)ccc2[nH]c1=O,-0.45,-0.485
COc1ccc(NC(=S)N2CCN(C)CC2)cc1,0.35,-0.095
O=C(CSc1nnnn1C1CCCC1)Nc1ccc(S(=O)(=O)N2CCCCC2)cc1,-0.05,.
Cc1cccc(N2CCN(C(=O)Nc3ccccc3)CC2C)c1 (centres undefined),0.15,-0.32
Cc1ccc(C(=O)N2c3ccccc3N=C(c3ccccc3)CC2c2ccccc2)cc1 (centres undefined),.,0.08
CC(Oc1ccc(-c2ccccc2)c(F)c1)C(=O)/C=C/Nc1ccc(Cl)cc1 (centres undefined),.,0.88
C/C(N)=N/S(=O)(=O)c1c(C)c(C)c(C)c(C)c1C,.,-0.085
COc1ccccc1CNC(=O)CNC(=O)c1cccc(C)c1,0.25,.
CN1CCC(N(C)C(=O)Nc2ccc(Cl)c(Cl)c2)CC1,1.5,-0.225
Cc1nn(CCCC(=O)NCCC2=CCCCC2)c(=O)c2nccn12,0.9,-2.29
CC(C)N(C(=O)NC(=O)Nc1ccccn1)S(C)(=O)=O,-1,.
CN(C(=O)c1ccc(S(C)(=O)=O)cc1)c1c(N)n(Cc2ccccc2)c(=O)[nH]c1=O,-0.45,.
O=C(c1cc(-c2ccccc2)n[nH]1)N1CCn2c1nc1ccccc12,0.25,3.09
Cc1ccc(Nc2ncnc3ccccc23)cc1C,.,-0.84
COc1ccc(NC(=O)C2CCCCC2C(=O)O)cc1 (centres undefined),-0.55,-0.345
Cc1c(C#N)c(NC(=O)COc2ccc(F)cc2Br)n(Cc2ccco2)c1C,1.9,.
CC(=O)N1CCN(C(=O)c2ccc(C(=O)c3ccccc3)cc2)CC1,1.85,.
O=C1c2ccccc2S(=O)(=O)c2cc(C(=O)N(Cc3ccco3)Cc3cccs3)ccc21,0.4,.
CC1CCCCN1C(=O)CSc1nnc(-c2ccccc2)o1 (centres undefined),2.25,-0.905
Cc1ccccc1C(=O)OC1CCCC1,-0.6,-0.38
COc1ccc(-c2nc(CSCC(=O)NCCN3CCN(c4cccc(Cl)c4)CC3)c(C)o2)cc1OC,-0.15,1.17
Cc1ccc(N2C3=C(C(=O)CC(C)(C)C3)C(c3ccccc3)C3=C2c2ccccc2C3=O)cc1 (centres undefined),.,-0.42
CC1(C)CC(NC(=O)c2ccc(C#N)cc2)CC(C)(C)N1,0.8,-0.1
CSC(=S)n1cccc1,1.15,0.27
OC(CON=C1c2ccccc2-c2ccccc21)CN1CCN(c2ccccn2)CC1 (centres undefined),0.15,.
CC(C)CNC(=O)C1Sc2nnc(-c3ccccc3)n2NC1c1ccccc1 (centres undefined),-0.3,-0.045
CS(=O)(=O)N(CCc1ccc(Cl)cc1)S(C)(=O)=O,-0.6,-0.86
CCOC(=O)C1=C(CSc2nnnn2-c2ccccc2OCC)NC(=O)NC1c1ccccc1 (centres undefined),-1.2,.
O=C1NC(c2ccccc2)/C(=C(\O)c2ccccc2)C1=O (centres undefined),-0.6,.
O=C(O)CNC(=O)c1ccc(N2CCCC2=O)cc1,0.9,.
CC1=Nc2ccccc2N=C(NC(=O)CN2CCN(c3ccccc3)CC2)C1c1ccccc1 (centres undefined),-0.6,-0.03
COc1ccc(/C=N/OCC(=O)N2CCN(C)CC2)cc1,-0.55,.
CN(Cc1ccco1)C(=O)C(Cc1ccccc1)NS(=O)(=O)c1cccc2cccnc12 (centres undefined),2.15,-0.32
COC(=O)C(O)C(Sc1ccccc1N)c1ccccc1 (centres undefined),-0.3,-0.85
Cc1ccc(C(O)C(=O)c2cccs2)o1 (centres undefined),-0.1,.
COc1ccc(Nc2ccnc3ccccc23)cc1,-0.5,i
CC/C(=N\NC(=O)c1cc(-c2ccco2)nc2ccccc12)c1ccc(F)cc1,-0.05,.
Cc1cc2nc(CSc3ccccc3C(=O)O)cc(=O)n2o1,1.4,0.5
OC1CCN(C(c2cccc(C(F)(F)F)c2)c2nnnn2Cc2ccc(F)cc2)CC1 (centres undefined),0,.
CC(C)(C)c1c[n+](-c2ccccc2)c2n1CCCS2,2.1,-0.83
N#Cc1ccccc1NC(=O)C1CCC1,0.95,0.4
CCOC(=O)CSc1nc2ccccc2c(=O)n1Cc1ccccc1OC,-0.15,-0.115
CC1CCCCC1NC(=O)CCn1c(=O)oc2ccccc21 (centres undefined),-1.65,-0.605
CCn1c(=O)c(=O)[nH]c2cc(C(=O)NCc3ccc(F)cc3)ccc21,-0.45,.
O=C(Cc1csc2nc(-c3ccc(Cl)cc3)cn12)N1CCN(c2ccccc2)CC1,0.5,0.12
O=C1C(=O)N(c2ccc(O)cc2)C(c2ccccc2)/C1=C(/O)c1ccccc1 (centres undefined),.,-0.19
CCC1CCCCN1C(=O)Cn1c(=O)n(CC2CCC(C(=O)NC3CCCC3)CC2)c(=O)c2ccccc21 (centres undefined),0.75,-0.61
CC1CCCN(c2nc3c(c(=O)n(C)c(=O)n3C)n2CC(=O)c2ccc(Br)cc2)C1 (centres undefined),.,0.65
O=C(Nc1ccc(-n2nncc2-c2ccccc2)cc1)c1ccc(S(=O)(=O)N2CCCCC2)cc1,1.6,0.405
COc1ccc(N2C(=O)C3C(C2=O)C2(C)C(=O)C3(C)C(c3ccccc3)=C2c2ccccc2)c([N+](=O)[O-])c1 (centres undefined),.,0.455
COc1ccc(C(=O)Nc2c(-c3ccccc3)nc3ccc(C)cn23)cc1,.,-1.16

# Assay outcomes (PubChem)
